PD-1 reverse act: activators reversing PD-1 mediated T-cell inhibition, primary screen, luminescence, primary human CD4 T cells, PD-L1 beads. CellTiter-Glo 96 h. activation, % (test concentration not listed). 29,000 tested, under 10 active. AID 2316, 2010;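 active means replicate mean of 50% or more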;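 further: 0% = median vehicle wells and 100% = positive control; 100 nL library stock added to about 50 µL; numbers are from one replicate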
MITF inh: inhibitors of MITF, primary screen, MITF inhibitor project, cell-based, luminescence; inhibition, % (concentration not given with the values); TRPM1 promoter luciferase, 24 h; hit rate 0.28% among 37,000; AID 2240, 2010;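 active means most replicates at 85% or more, or half of them and the mean; inconclusive means half reach 85% but not the mean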;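 further: human melanocyte line stably carrying TRPM1 promoter luciferase reporter; 0% = vehicle wells and 100% = a positive control; the first replicate is given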
Hedgehog inh: Hedgehog pathway signaling inhibitors, primary screen, luminescence, Shh-LIGHT2 cells, Gli-luciferase; Shh-LIGHT2 Gli-luciferase reporter, 30 h; inhibition, % (test concentration not listed); hit rate 2.1% among 22,000;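 active means replicate mean of 65% or more; inconclusive means mean lower but half the replicates past it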;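 further: pathway switched on by Shh-conditioned medium diluted 1 in 25 in low serum; 100 nL library stock added to about 40 µL; 0% = median of neutral wells and 100% = positive control level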
YB-1 expr inh: inhibitors of YB-1 gene expression, primary screen, cell-based, fluorescence. U2OS, qRT-PCR YB-1 vs CDIP delta delta Cp, 16 h; hits give high values; zero = DMSO, each unit about twofold. delta delta Cp (YB-1 minus CDIP) (concentration not given with the values). hit rate 0.37% among 30,000;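 active means delta delta Cp rounded down to an integer at or above 3, about 3 SD of DMSO wells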;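 further: higher means less YB-1 transcript or more CDIP transcript relative to DMSO; stock transfer was 100 nL into about 100 µL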
An asterisk follows results filed as active; ? = inconclusive; / = not tested or not shown. An excerpt; count on the stated rates, not on these rows.

# | compound | Hedgehog inh | PD-1 reverse act | YB-1 expr inh | MITF inh
1 | C[C@@H]1CN([C@@H](C)CO)C(=O)c2cccc(NC(=O)Nc3ccccc3)c2O[C@H]1CN(C)C(=O)Nc1ccc(F)cc1 | 0.9 | / | 0.889 | -3.8
2 | CNC(=O)CN(c1cccc(Cl)c1Cl)S(=O)(=O)c1ccccc1 | / | -0.4 | / | -3.2
3 | Cc1cc(C(=O)Nc2cccc3c2O[C@@H](CN(C)Cc2ccc(Cl)c(Cl)c2)[C@@H](C)CN([C@@H](C)CO)C3=O)n(C)n1 | 7.4 | -4.3 | -0.0251 | -6.9
4 | C[C@@H]1CN([C@H](C)CO)C(=O)Cc2cc(NS(=O)(=O)c3cccs3)ccc2O[C@@H]1CN(C)Cc1ccc(C(=O)Nc2ccccc2N)cc1 | / | -0.1 | 0.0597 | 6.9
5 | CC(C)NC(=O)Nc1cccc2c1O[C@H](CN(C)C(=O)Nc1cccc3ccccc13)[C@@H](C)CN([C@H](C)CO)C2=O | 11.0 | 0.2 | -0.0655 | -11.5
6 | C[C@@H]1CN([C@H](C)CO)C(=O)Cc2cc(N(C)C)ccc2O[C@@H]1CN(C)Cc1ccc2c(c1)OCO2 | -4.5 | -1.9 | 0.333 | -3.7
7 | Cc1ccc(S(=O)(=O)N(C)C[C@@H]2Oc3ccc(NC(=O)NC(C)C)cc3C(=O)N([C@H](C)CO)C[C@H]2C)cc1 | 7.0 | 0.2 | -0.0965 | -4.4
8 | CCOC(=O)c1ccc(NC(=O)CSc2nc(N)c3c4c(sc3n2)CCC4)cc1 | / | 2.4 | / | 10.8
9 | CCc1nc(SCC(=O)Nc2ccccc2C)n[nH]1 | / | 0.6 | / | -0.4
10 | Nc1ccc(NS(=O)(=O)c2ccccc2)cc1 | / | -0.1 | -0.97 | -10.6
11 | Cc1cccc(-c2noc(CN(C(=O)c3ccc(Br)o3)C(C)C)n2)c1 | / | 0.0 | / | -27.2
12 | CC(C)OC(=O)CSc1nc(N)c(C#N)cc1C#N | / | 2.9 | / | -54.3
13 | Cc1noc(C)c1NC(=O)Nc1ccc2c(c1)C(=O)N([C@H](C)CO)C[C@H](C)[C@H](CN(C)Cc1ccccc1)OCCCC[C@@H](C)O2 | -18.1 | / | -0.239 | -4.1
14 | COc1cccc(NC(=O)CN(C)S(=O)(=O)c2cc(C)ccc2OC)c1 | / | 1.0 | / | -2.6
15 | Cc1noc(C)c1S(=O)(=O)Nc1ccc2c(c1)C(=O)N([C@@H](C)CO)C[C@H](C)[C@H](CN(C)C(=O)Nc1ccc(F)cc1)O2 | / | -1.2 | 0.372 | -21.2
16 | Cc1noc(C)c1S(=O)(=O)Nc1cccc2c1O[C@@H](CN(C)S(=O)(=O)c1ccc(Cl)cc1)[C@@H](C)CN([C@H](C)CO)C2=O | 67.3* | -0.9 | 0.448 | 7.5
17 | C[C@@H]1CCCCO[C@@H](CN(C)Cc2ccccc2)[C@@H](C)CN([C@H](C)CO)C(=O)c2cc(NC(=O)Cc3ccccc3)ccc2O1 | 4.5 | -1.3 | -0.12 | -3.0
18 | COc1ccc(Cc2nccc3cc(OC)c(OC)cc23)cc1OC | 36.9 | -0.7 | 0.686 | 25.1
19 | C[C@@H]1CN([C@H](C)CO)C(=O)c2cc(NC(=O)Nc3ccc(C(F)(F)F)cc3)ccc2O[C@H]1CN(C)CC1CCCCC1 | / | 1.6 | 0.124 | -6.2
20 | COc1ccc(S(=O)(=O)Nc2ccc3c(c2)CC(=O)N([C@@H](C)CO)C[C@H](C)[C@H](CN(C)CC2CC2)O3)cc1 | 37.1 | 2.6 | -0.0524 | -7.2
21 | O=C(CNS(=O)(=O)c1ccccc1)Nc1ccc(Br)cc1F | / | 0.1 | / | -12.1
22 | C[C@H](CO)N1C[C@H](C)[C@H](CN(C)S(=O)(=O)c2ccc(Cl)cc2)Oc2c(NC(=O)c3ccc(-c4nccs4)cc3)cccc2C1=O | 94.6* | -1.4 | -0.399 | 13.5
23 | CCCN(C)C[C@@H]1OCCCC[C@@H](C)Oc2ccc(NS(=O)(=O)c3ccc(OC)cc3)cc2C(=O)N([C@H](C)CO)C[C@@H]1C | / | 0.8 | -0.233 | -7.7
24 | O=C(c1cc2ccccc2oc1=O)N(Cc1ccc(F)cc1)Cc1ccco1 | / | 1.3 | / | -3.4
25 | COc1cc2c(c(N)c1OC)C(=O)/C(=C/c1cc(C)c(O)c(C)c1)C2 | 84.4* | -11.3 | 0.471 | -1.1
26 | COc1ccc(NC(=O)C(C)Oc2ccccc2)cc1NC(=O)c1ccco1 (stereo not drawn) | / | -0.5 | / | 9.7
27 | C[C@@H]1CN([C@@H](C)CO)C(=O)c2cc(NS(=O)(=O)c3ccc(Cl)cc3)ccc2O[C@@H]1CN(C)Cc1ccc2c(c1)OCO2 | 26.8 | -0.3 | 0.5 | 4.4
28 | COCCC(=O)C1=CSC2=C(C(=O)CC(C)(C)C2)C1c1ccncc1 (stereo not drawn) | 59.9 | -2.2 | -0.552 | 20.2
29 | COc1ccc(S(=O)(=O)N(C)C[C@@H]2Oc3c(NC(=O)Nc4ccc5c(c4)OCO5)cccc3C(=O)N([C@@H](C)CO)C[C@@H]2C)cc1 | 17.3 | / | -0.294 | -25.4
30 | C[C@@H]1CN([C@@H](C)CO)C(=O)c2cccc(NC(=O)c3ccncc3)c2O[C@@H]1CN(C)Cc1ccncc1 | -11.1 | 0.2 | 0.116 | -1.0
31 | Cn1c(-c2ccc3c(c2)OCO3)cc(=O)c2ccccc21 | -8.4 | / | -0.405 | -21.5
32 | O=C(CNS(=O)(=O)c1cc(Cl)ccc1Cl)Nc1ccc(Oc2ccccc2)cc1 | / | -0.9 | / | 11.5
33 | Cc1noc(C)c1S(=O)(=O)Nc1ccc2c(c1)C(=O)N([C@@H](C)CO)C[C@H](C)[C@@H](CN(C)S(=O)(=O)c1ccc(F)cc1)O2 | / | / | 0.263 | -0.4
34 | C[C@H]1CN([C@@H](C)CO)C(=O)c2cc(NS(=O)(=O)c3ccc(Cl)cc3)ccc2O[C@H]1CN(C)C(=O)NC1CCCCC1 | / | -1.9 | -0.102 | -1.1
35 | C[C@@H]1CN([C@H](C)CO)C(=O)Cc2cc(NC(=O)CCN3CCOCC3)ccc2O[C@@H]1CN(C)S(=O)(=O)c1ccccc1 | -9.3 | / | 0.432 | -1.7
36 | Cc1noc(C)c1NC(=O)Nc1ccc2c(c1)C(=O)N([C@H](C)CO)C[C@H](C)[C@H](CN(C)C(=O)Nc1ccc(C(F)(F)F)cc1)OCCCC[C@@H](C)O2 | 63.2 | -2.2 | 0.154 | 21.2
37 | Nc1ncnc(NCCCN2CCOCC2)c1[N+](=O)[O-] | / | 0.9 | / | -38.1
38 | COc1ccc(NC(=O)N(C)C[C@H]2Oc3c(NS(=O)(=O)c4ccccc4)cccc3C(=O)N([C@@H](C)CO)C[C@@H]2C)cc1 | -16.4 | / | 0.538 | 0.2
39 | O=C(COC(=O)c1ccc(Cl)cc1NC(=O)c1ccc(Cl)cc1)c1ccccc1 | 7.2 | 0.6 | -18.1 | -54.7
40 | COc1ccc(NC(=O)N(C)C[C@H]2Oc3ccc(NC(=O)NC4CCCCC4)cc3C(=O)N([C@@H](C)CO)C[C@@H]2C)cc1 | -20.4 | 1.1 | -0.0793 | -7.1
41 | C[C@@H]1CN([C@H](C)CO)C(=O)Cc2cc(NS(=O)(=O)c3ccc(Cl)cc3)ccc2O[C@H]1CN(C)Cc1ccc(Cl)c(Cl)c1 | 27.7 | -0.6 | 0.152 | 17.6
42 | COc1ccc(C(=C2C(=O)Nc3ccccc32)c2ccc(OC)cc2)cc1 | ? | -0.1 | -0.0585 | 9.2
43 | CCc1cc2c(SCC(=O)N3CCc4ccccc43)ncnc2s1 | / | 1.4 | / | 11.2
44 | CNC[C@@H]1Oc2ccc(NS(=O)(=O)c3ccccc3)cc2C(=O)N([C@H](C)CO)C[C@@H]1C | 19.5 | 1.0 | 0.0638 | 0.9
45 | COc1ccc(NC(=O)CSc2nnc(C)c(=O)[nH]2)cc1Cl | / | -3.6 | / | -8.3
46 | C[C@H]1CN([C@@H](C)CO)C(=O)c2cc(NC(=O)Cc3ccccc3)ccc2O[C@@H]1CN(C)C(=O)Nc1ccc2c(c1)OCO2 | 12.5 | 0.6 | -0.152 | 5.0
47 | C[C@@H]1CN([C@H](C)CO)C(=O)Cc2cc(NC(=O)Cn3cnnn3)ccc2O[C@@H]1CN(C)Cc1ccncc1 | / | 0.3 | 0.103 | -6.2
48 | CC(=O)CSc1ncnc2scc(-c3ccc(F)cc3)c12 | / | -2.0 | / | -34.3
49 | C[C@H](CO)N1C[C@H](C)[C@H](CN(C)S(=O)(=O)c2ccccc2)Oc2ccc(NC(=O)Nc3ccc(F)cc3)cc2CC1=O | -4.9 | 0.7 | 0.0149 | 9.4
50 | COc1ccc(NC(=O)N(C)C[C@H]2Oc3c(NS(=O)(=O)c4ccc(OC)cc4)cccc3C(=O)N([C@@H](C)CO)C[C@H]2C)cc1 | 11.1 | / | 0.124 | 8.4
51 | COc1cc(NC(=O)C2C3C=CC(C3)C2C(=O)O)ccc1NC(=O)c1ccccc1 (stereo not drawn) | / | -0.3 | / | -21.3
52 | O=C(O)C1C2C=CC(C2)C1C(=O)Nc1ccc(C(=O)N2CCCCC2)c(Cl)c1 (stereo not drawn) | / | 1.3 | / | -9.8
53 | Cn1c(SCC(=O)Nc2ccc(F)cc2)nnc1-c1cccnc1 | / | 0.6 | / | 1.2
54 | Cc1cc(S(=O)(=O)NCc2cccnc2)ccc1F | / | -1.4 | / | 5.5
55 | COc1c(O)cc(-c2oc3cc(O)cc(O)c3c(=O)c2O[C@@H]2O[C@@H](C)[C@H](OC(C)=O)[C@@H](O)[C@H]2O)cc1O | -10.4 | 0.2 | 0.0408 | 14.5
56 | C[C@@H]1CN([C@H](C)CO)C(=O)Cc2cc(NC(=O)Cc3ccccc3)ccc2O[C@H]1CN(C)CC1CCCCC1 | -38.4 | 1.7 | 0.0491 | 0.3
57 | C[C@@H]1CN([C@H](C)CO)C(=O)Cc2cc(NS(C)(=O)=O)ccc2O[C@@H]1CN(C)Cc1ccc(Oc2ccccc2)cc1 | -26.3 | 0.7 | 0.398 | -11.8
58 | C[C@H]1CN([C@@H](C)CO)C(=O)c2cc(NS(=O)(=O)c3ccccc3)ccc2O[C@@H]1CN(C)C(=O)NC1CCCCC1 | -23.0 | 0.3 | 0.22 | 5.5
59 | CC(C)(C)c1ccc(-c2[nH]nc(NC(=O)c3ccccc3Cl)c2Br)cc1 | 25.9 | -0.9 | 0.0133 | 54.8
60 | NC(=O)C1CCN(C(=O)CSc2nc3ccccc3s2)CC1 | / | 2.1 | / | -21.0

Looked up by structure from above (4):
# | compound | Hedgehog inh | PD-1 reverse act | YB-1 expr inh | MITF inh
48 | CC(=O)CSc1ncnc2scc(-c3ccc(F)cc3)c12 | / | -2.0 | / | -34.3
49 | C[C@H](CO)N1C[C@H](C)[C@H](CN(C)S(=O)(=O)c2ccccc2)Oc2ccc(NC(=O)Nc3ccc(F)cc3)cc2CC1=O | -4.9 | 0.7 | 0.0149 | 9.4
56 | C[C@@H]1CN([C@H](C)CO)C(=O)Cc2cc(NC(=O)Cc3ccccc3)ccc2O[C@H]1CN(C)CC1CCCCC1 | -38.4 | 1.7 | 0.0491 | 0.3
59 | CC(C)(C)c1ccc(-c2[nH]nc(NC(=O)c3ccccc3Cl)c2Br)cc1 | 25.9 | -0.9 | 0.0133 | 54.8

Remaining list, next part
# | compound | Hedgehog inh | PD-1 reverse act | YB-1 expr inh | MITF inh
61 | C[C@@H]1CN([C@@H](C)CO)C(=O)c2cc(NC(=O)C3CC3)ccc2O[C@H]1CN(C)S(=O)(=O)c1ccccc1 | 9.9 | -1.5 | 0.12 | -4.9
62 | C[C@@H]1CN([C@H](C)CO)C(=O)Cc2cc(NS(=O)(=O)c3cn(C)cn3)ccc2O[C@H]1CN(C)Cc1ccccc1 | 4.2 | / | 0.059 | -11.6
63 | Cc1cc(C)c2oc(-c3cccc(NC(=O)COc4ccc(Cl)cc4)c3C)nc2c1 | / | -1.6 | / | 16.1
64 | COc1ccc(S(=O)(=O)Nc2ccc3c(c2)C(=O)N([C@@H](C)CO)C[C@@H](C)[C@H](CN(C)Cc2ccccc2)O3)cc1 | / | 2.2 | 0.0289 | 2.2
65 | C[C@@H]1CN([C@H](C)CO)C(=O)c2cccc(NS(C)(=O)=O)c2O[C@@H]1CN(C)C(=O)Nc1cccc2ccccc12 | 1.2 | 3.3 | -0.181 | -11.4
66 | COc1ccc(S(=O)(=O)N(C)C[C@@H]2Oc3ccc(NC(=O)Nc4ccccc4)cc3CC(=O)N([C@H](C)CO)C[C@@H]2C)cc1 | 41.0 | 1.8 | -0.0454 | 1.0
67 | Cc1noc(C)c1NC(=O)N(C)C[C@H]1Oc2c(NS(=O)(=O)c3cccs3)cccc2C(=O)N([C@H](C)CO)C[C@H]1C | 16.7 | 3.0 | -0.147 | 2.4
68 | CC(=O)c1ccc(NC(=O)CN(C)S(=O)(=O)c2ccc(Cl)cc2)cc1 | / | 0.5 | / | -11.6

High-throughput results (PubChem BioAssay)
